# Bioassay records: PubChem, National Center for Advancing Translational Sciences (NCATS)
# Anthrax LT inh: blocks cellular internalization of anthrax lethal toxin | AID 912 | Potency, µM (top dose mostly 40 µM), for inactives: at the highest dose activity change, negative = inhibition, actives largely listed as inhibitors | 70,000 tested, 0.67% active | Cells, anthrax lethal toxin internalization, FRET ratio (460/530); active = well fitted falling ratio curve with the 530 nm signal flat; inconclusive = other ratio curves, or a change in one channel alone; inactive = flat curves in the ratio and both channels; the % refers to the ratio; also: % is scaled to controls: 0 for no effect and ±100 for the full control effect; nearly all actives have a fitted effect of over 50% in size; tested in ME-180 cells; beta-lactamase reporter
# SmPrx2 inh: Schistosoma mansoni Prx2 inhibition. 65,000 tested, 0.07% active. S. mansoni Prx2 activity coupled to TGR/GSH (TGR is thioredoxin glutathione reductase), NADPH fluorescence loss, qHTS; some inactives read as strong as hits. Potency, µM; active means full or partial inhibition curve with a strong effect at the top dose; inconclusive means weaker partial or single-point curve; inactive means no accepted curve; also: series up to 57 µM; many of its hits are not listed in these tables
#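 Activity is read as the drop in NADPH fluorescence (365/450 nm), recorded every 30 sec for 8 min after H2O2 addition. Prx2 is coupled to TGR-driven NADPH oxidation through glutathione, in phosphate buffer pH 7.4.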
# * marks the source's active call; other numbers are inactive results; ? = inconclusive; . = not tested or not shown; [ ] = another dose, or the depositor's remark. Potency is read from the fitted curve at half-maximal effect. Not all compounds are listed; rates above refer to the full screens.
SMILES,Anthrax LT inh,SmPrx2 inh
CC(=O)OC[C@@H]1O[C@H](CCO/N=C\[C@@H](C)[C@H](OCc2ccccc2)C(C)C)C=C[C@@H]1OC(C)=O,1%[8 µM],.
COc1cc2c(cc1OC)CN(C(=O)COc1ccc(C#N)cc1)CC2,-7%,>57
Clc1ccc(-n2nnnc2SCc2c(-c3ccccc3)nc3sccn23)cc1,-10%,>57
Clc1ccccc1NN(Cc1ccncc1)c1ccccc1Cl,4%[8 µM],>57
Cn1c(CC2C(=O)Nc3ccc(Br)cc32)nc2ccccc2c1=O (configuration not stated),0%,>57
C/C(N)=N\S(=O)(=O)c1ccc(Cl)cc1,-11%,>57
CC(CCc1ccco1)NC(=O)Cn1ncc2c1-c1ccccc1OC2 (configuration not stated),-10%,>57
O/N=C1/CCc2nonc2/C1=N/O,3%,>57
CCOC(=O)CSc1nnc([C@H](C)NC(=O)OC(C)(C)C)o1,7%,>57
CCOC(=O)c1cc(=O)n2nc(-c3ccc(C)cc3)nc2s1,-1%,>57
CNC(=O)[C@@H]1O[C@@H](n2cnc3c(N)ncnc32)[C@@H](O)[C@H]1O,5%,>57
CC(C)N1C(=O)C2C(c3ccccc3O)NC(C)(C(=O)O)C2C1=O (configuration not stated),2%,>57
O=C(Cc1ccccc1)N1CCCC1c1ccccc1 (configuration not stated),-21%,.
Cc1cccc(NC(=O)c2sc3nc(-c4ccc(F)cc4)cn3c2C)n1,-6%,>57
COC(=O)c1sc(NC(=O)CSc2nnc(C(C)C)n2C)nc1C,-8%,>57
CCOC(=O)N1CCN(S(=O)(=O)c2ccc3c(c2)CCN3C(=O)C2CC2)CC1,-2%,>57
CCCCCn1c(=S)[nH]c2ncccc2c1=O,14%,>57
COc1cc(O)c2c(=O)cc(-c3ccccc3)oc2c1,?,>57
COc1ccc(-c2cc(C(F)(F)F)n3nc(C(=O)O)cc3n2)cc1OC,-10%,.
COc1ccccc1OCc1ccc(C(=O)NCc2ccco2)o1,?,>57
Cc1ccccc1NC(=O)c1ccccc1NC(=O)c1ccco1,6%,>57
CCOC(=O)Nc1sc(=S)n(C)c1C,-1%,>57
CC(NC(=O)c1cncc(Br)c1)c1ccc(S(N)(=O)=O)cc1 (configuration not stated),-3%,>57
CCOC(=O)c1c(NC(=O)c2cc(C3CC3)on2)sc2c1CCCC2,-1%,>57
CCC1CCCCN1C(=O)CSc1nnc(CNC(=O)c2cc(OC)c(OC)c(OC)c2)o1 (configuration not stated),-9%,>57

# Looked up one by one from the entries so far (two):
SMILES,Anthrax LT inh,SmPrx2 inh
CCOC(=O)c1cc(=O)n2nc(-c3ccc(C)cc3)nc2s1,-1%,>57
C/C(N)=N\S(=O)(=O)c1ccc(Cl)cc1,-11%,>57

# Other compounds
SMILES,Anthrax LT inh,SmPrx2 inh
COc1cc(-c2nnc(SCc3cccnc3)n2C)cc(OC)c1O,3%,>57
O=C(c1cc2ccccn2n1)N1CCN(c2ccccn2)CC1,2%,>57
Cn1c(SCc2ccc(Br)cc2)nnc1-c1ccncc1,.,>57
CCOc1cc(C(=O)N2CCOCC2)ccc1OCc1ccccc1,2%,>57
CC(=C/C=C/C(C)=C/C=C/C=C(C)/C=C/C=C(C)/C=C/C(=O)O)/C=C/C(=O)O,?,.
CSc1ccc(C2C3(C#N)C(N)=NC4(OCCO4)C23C#N)cc1 (configuration not stated),-8%,>57
Cc1ccc(C(C)C)c(OCC(=O)Nc2ccc(Cl)cn2)c1,-29%,>57
c1coc(CN=C2NC(=NCc3ccco3)c3ccccc32)c1,5%,>57
CC(=O)c1ccc(NS(=O)(=O)Cc2ccccc2)cc1,-5%,>57
Oc1ccc(-c2cccc(-c3ccc(O)cc3)n2)cc1,-9%,>57
CC1CCCC(C)N1C(=O)C1CC(c2ccc(F)cc2)=NO1 (configuration not stated),11%,>57
COc1ccc(-c2nc3cnc(OC)nc3n(-c3ccc(OC)cc3)c2=O)cc1,?,>57
O=C(O)CBr,?,.
CCCCOc1ccccc1-c1cc(C(=O)O)[nH]n1,-9%,>57
NC(=O)NC(=O)[C@H]1CCCC[C@@H]1C(=O)O,0%[8 µM],>57
O=C(NCc1cccnc1)c1cccc(S(=O)(=O)N2CCCCC2)c1,7%,>57
CCNC(=O)N1c2ccc(OC)cc2C(C)=CC1(C)C,5%,>57
Cc1ccccc1-c1nc(CS(=O)(=O)CC(=O)NCCCN2C(C)CCCC2C)c(C)o1 (configuration not stated),-11%,>57
Nc1c(NCCN2CCOCC2)c2ccccc2oc1=O,5%,>57
COc1cccc(C2=NO[C@@H]3C(=O)N(c4ccc5c(c4)OCCO5)C(=O)[C@H]23)c1OC,?,>57
CS(=O)(=O)Nc1cccc(C(=O)CC2(O)C(=O)Nc3ccccc32)c1 (configuration not stated),3%,>57
Cc1ccc(Cn2ncc3c(NCCCN4CCOCC4)ncnc32)cc1,.,>57
Cn1c(=O)oc2cc(S(=O)(=O)NCc3ccco3)ccc21,-5%,>57
CCN1CCCC1CNC(=O)CS(=O)(=O)Cc1nc(-c2ccccc2C)oc1C (configuration not stated),-8%,>57
CN(CC(=O)N1CCCCCC1)S(=O)(=O)c1cccc2cccnc12,8%,>57
SMILES,Anthrax LT inh,SmPrx2 inh
CNc1cc(NS(=O)(=O)c2ccc(N)cc2)nc(NC)n1,-3%,>57
COc1ccc(NC(=O)c2ccc(-c3ccc(-c4noc(C)n4)cc3C)cc2)cc1OCCN(C)C,16µM*,>57
CC(=O)OCC1OC(C#Cc2ccc(C)cc2C)C=CC1OC(C)=O (configuration not stated),?,.
O=C(CSCc1cccc(Br)c1)N1CCOCC1,-12%,.
CCOc1ccc(CSC2=NCCN2)cc1Cl,-19%,>57
CCc1nc(NCc2ccco2)c2oc3ccccc3c2n1,?,>57
COc1ccc(O[C@H]2C=C[C@@H](c3ccccc3)O[C@@H]2CO/N=C(\C)CCN2CCCc3nc(C)c(C)cc32)cc1,5%[8 µM],.
CC1CCN(C(=O)CCCOc2cc(=O)n(C)c3ccccc23)CC1,12%,>57
COc1cccc(NC=C2C(=O)OC3(CCCCC3)OC2=O)c1,-8%,.
CCCc1nnc(NC(=O)NCCN2C(=O)C3C4C=CC(C4)C3C2=O)s1 (configuration not stated),2%,>57
Nc1cccc(C(=O)Nc2ccc3nc(-c4cccnc4)[nH]c3c2)c1,3%,>57
C=CCO[C@@H](Cn1ccnc1)c1ccc(Cl)cc1Cl,-4%[3.58 µM],>57
N#Cc1nc(-c2ccco2)oc1N1CCN(C(c2ccccc2)c2ccccc2)CC1,-5%,>57
NC(=O)SCC(=O)Nc1cccc(Cl)c1,8%,.
NS(=O)(=O)c1cc([C@@]2(O)NC(=O)c3ccccc32)ccc1Cl,3%[3.58 µM],>57
CCCCOC(=O)c1cc(=O)[nH]c2ccccc12,-22%,>57
O=C(Nc1cc(C(F)(F)F)ccc1N1CCCC1)c1ccc2c(c1)OCO2,-29%,>57
O=C(c1csnn1)N1CCC[C@@]2(CCN(Cc3nccs3)C2)C1,6%,>57
FC(F)(F)c1cccc(-c2nnc3ccc(C(F)(F)F)cn23)c1,-11%,>57
COC(=O)c1cncn1C(C)c1ccccc1 (configuration not stated),4%,>57
COCCN1C(=O)c2ccc(C(=O)O)cc2C1=O,-2%,>57
O=C(CCN1CCN(c2ccc(F)cc2)CC1)Nc1ccc(F)cc1,-2%,>57
COc1ccccc1NC(=O)N1CCn2c(nc3ccccc32)C1,?,>57
Cc1ccc(N2CC(C(=O)NCc3cccs3)CC2=O)cc1 (configuration not stated),-2%,>57
CCn1c(SCC(=O)n2nc(C)cc2C)nnc1-c1ccc2c(c1)OCO2,10%,>57
SMILES,Anthrax LT inh,SmPrx2 inh
OCC(CO)(CO)N=Cc1cc(Br)ccc1O,-20%,>57
CCOC(=O)c1c(NC(C)=O)no[n+]1[O-],-7%,>57
CCC(=O)N1CCN(c2nc(C)nc3sc(C)c(C)c23)CC1,22%,>57
CCOC(=O)CCCNC(=O)COC(=O)c1cc(C)cc(C)c1,6%,>57
Cc1ccsc1/C=c1\sc2ncnn2c1=O,.,>57
Cc1ccc(CCNC(=O)C2CCCN(S(=O)(=O)c3cccc4nsnc34)C2)cc1 (configuration not stated),1%,>57
CC(=O)c1cccc(NC(=O)Nc2cccnc2)c1,-5%,>57
NC(=O)Nc1cccc(C(F)(F)F)c1,-5%,>57
O=C1c2ccccc2C(=O)N1CCCn1nnc(-c2ccc(N3CCOCC3)cc2)n1,-6%,>57
C=CCN(C(=O)c1ccccc1)c1ccc(OC)cc1,-11%,>57
O=S(=O)(c1ccc(-c2cn3ccccc3n2)cc1)N1CCOCC1,-4%,.
Cc1noc(C)c1C(=O)N1CCC2(CCCN(c3ccncc3)C2)CC1,?,>57
Cc1ccccc1-c1noc(-c2ccc(O)cc2)n1,10µM*,.
COc1ccccc1C(=O)NCCN1CCN(C(=O)c2ccccc2OC)CC1,3%,>57
O=C1CCc2cc(S(=O)(=O)N3CCC(C(=O)Nc4nccs4)CC3)ccc2N1,8%,>57
O=c1c(-c2ccc(F)cc2)nc2cncnc2n1Cc1ccc(F)cc1,?,>57
CC1CCCC(NC(=O)CN(C)S(=O)(=O)c2cccc3cccnc23)C1C (configuration not stated),-25%,>57
CC(C)OC(=O)CSc1nnc(Cc2ccccc2)n1C,-6%,>57
N=c1c2c3c(sc2ncn1CCN1CCOCC1)CCCCC3,.,>57
Nc1c(S(=O)(=O)c2cccs2)c2nc3ccccc3nc2n1CC1CCCO1 (configuration not stated),?,>57
CCOc1cc(C(=O)N2CCN(c3ccccc3)CC2)cc(OCC)c1OCC,22%,.
Cc1nc(COC(=O)c2ccc(CO)cc2)cs1,8%,>57
Cc1cc(C)cc(OCc2nnc(SCC(=O)c3ccccc3)o2)c1,?,>57
CS(=O)(=O)N1CCC2(CCN(C(=O)Nc3cccc(F)c3)CC2)CC1,1%,>57
COc1cccc2[nH]c3c(N4CCCC(C)C4)ncnc3c12 (configuration not stated),-1%,>57

# A run of entries of the results above:
SMILES,Anthrax LT inh,SmPrx2 inh
Cc1nc(COC(=O)c2ccc(CO)cc2)cs1,8%,>57
Cc1cc(C)cc(OCc2nnc(SCC(=O)c3ccccc3)o2)c1,?,>57
CS(=O)(=O)N1CCC2(CCN(C(=O)Nc3cccc(F)c3)CC2)CC1,1%,>57
COc1cccc2[nH]c3c(N4CCCC(C)C4)ncnc3c12 (configuration not stated),-1%,>57

# By substructure, the compounds so far containing a CF3 group.
SMILES,Anthrax LT inh,SmPrx2 inh
COc1ccc(-c2cc(C(F)(F)F)n3nc(C(=O)O)cc3n2)cc1OC,-10%,.
O=C(Nc1cc(C(F)(F)F)ccc1N1CCCC1)c1ccc2c(c1)OCO2,-29%,>57
FC(F)(F)c1cccc(-c2nnc3ccc(C(F)(F)F)cn23)c1,-11%,>57
NC(=O)Nc1cccc(C(F)(F)F)c1,-5%,>57

# Next section.
SMILES,Anthrax LT inh,SmPrx2 inh
CCOc1ccc2c(c1)c1nnc(SCC(=O)N3CCC(C)CC3)nc1n2C,2%,>57
Cc1csc(SCCN2C(=O)c3ccccc3C2=O)n1,8%,>57
Cc1c2c(nc3nc4ccccc4n13)CCCC2=O,-12%,>57
CCS(=O)(=O)N1Cc2ccccc2CC1C(=O)N1CCN(c2ccccc2)CC1 (configuration not stated),-7%,>57
O=C(NCc1ccco1)c1noc2c1CCCC2,-4%,>57
O=Nc1ccc2oc(=O)ccc2c1,?,>57
COc1ccc(-n2c(=O)cnc3cnc(Oc4ccccc4)nc32)cc1,?,>57
CC(=O)N1CCc2cc(S(=O)(=O)CCC(=O)NCc3cccs3)ccc21,-4%,>57
COc1cc(C(=O)Oc2ccccc2)ccc1OCc1c(C)noc1C,9%,>57
Cc1cc(=O)oc2cc(OCC(=O)NCCCN3CCOCC3)ccc12,.,>57
COC(=O)[C@H](Cc1ccccc1)NC(=O)[C@]1(C)C[C@H]1[C@H](NC(=O)OCc1ccccc1)c1ccccc1,?,.
COCCn1c(N)c(C(=O)OCc2ccccc2)c2nc3ccccc3nc21,.,>57
O=C(CN1C(=O)c2ccccc2S1(=O)=O)NCCSC1CCCCC1,-23%,>57
CCCCOCP(=O)(CCCC)COCCCC,1%,.
N=C1C(c2ccccc2)=C(O)CN1c1ccc2c(c1)OCO2,-7%,>57
O=C(OCc1nnc(-c2ccccc2)o1)c1cc(=O)c2ccccc2o1,-4%,>57
Cc1csc(C(C#N)C(=O)c2cc3ccccc3o2)n1 (configuration not stated),0%,>57
O=C(NCCCN1CCOCC1)c1ccccc1-c1ccccc1,?,>57
O=C(O)c1ccc(F)c(S(=O)(=O)Nc2ccccc2Cl)c1,2%,>57
O=C(CN1CCN(Cc2ccccc2Cl)C1=O)NC1CCCCCC1,-10%,>57
CC(CN1CCOCC1)OC(=O)c1ccc2c(c1)OCCO2 (configuration not stated),6%,>57
CCCOC(=O)CCCCC1SCC(NC(=O)OC)C1NC(=O)OC (configuration not stated),-10%,>57
Cc1cccc(CNc2cc(-c3ccccc3Cl)ncn2)c1,6%,>57
Cc1ccc(OCC(O)Cn2c(=N)n(CCN3CCCCC3)c3ccccc32)cc1 (configuration not stated),?,>57
COC(=O)[C@@]1(Cc2ccc(F)cc2)[C@H]2c3cc(C(=O)N(C)C)n(Cc4ccc(S(C)(=O)=O)cc4)c3C[C@H]2CN1C(=O)c1ccccc1,?,>11
